Assay outcomes deposited in PubChem BioAssay by Broad Institute.
rRNA inh HTS = selective bacterial rRNA inhibition in E. coli; 350,000 compounds, 1.6% hits; AID 720706; E. coli WT GFP vs humanized-ribosome RFP mutants, fluorescence, 24 h; active compounds read low; DMSO median 0, no signal -100; GFP signal change (wild-type ribosome), % (no concentration beside the values);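 active = significant combined selectivity score with lowered wild-type GFP, culture density cut under 30%, mutant RFP and density less affected; inactive = any of these conditions unmet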; note: one replicate is shown; some compounds called inactive have numbers as strong as hits
AF4-AF9 inh = blocks AF4 peptide binding to human AF9 | 350,000 compounds, 0.47% hits | AlphaScreen, biotin-AF4 peptide binding to FLAG-AF9 | P42568 | AID 651704 | inhibition, % at 10 µM;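 active = every replicate reaching a set inhibition limit, whatever the replicate mean, cut at about 25% in these data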;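 note: 0% = plate neutral control median and 100% = total signal loss; the record names both 10 and 1 µM as test concentration; the first replicate is given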
Target sequence (P42568 whole entry, looked up): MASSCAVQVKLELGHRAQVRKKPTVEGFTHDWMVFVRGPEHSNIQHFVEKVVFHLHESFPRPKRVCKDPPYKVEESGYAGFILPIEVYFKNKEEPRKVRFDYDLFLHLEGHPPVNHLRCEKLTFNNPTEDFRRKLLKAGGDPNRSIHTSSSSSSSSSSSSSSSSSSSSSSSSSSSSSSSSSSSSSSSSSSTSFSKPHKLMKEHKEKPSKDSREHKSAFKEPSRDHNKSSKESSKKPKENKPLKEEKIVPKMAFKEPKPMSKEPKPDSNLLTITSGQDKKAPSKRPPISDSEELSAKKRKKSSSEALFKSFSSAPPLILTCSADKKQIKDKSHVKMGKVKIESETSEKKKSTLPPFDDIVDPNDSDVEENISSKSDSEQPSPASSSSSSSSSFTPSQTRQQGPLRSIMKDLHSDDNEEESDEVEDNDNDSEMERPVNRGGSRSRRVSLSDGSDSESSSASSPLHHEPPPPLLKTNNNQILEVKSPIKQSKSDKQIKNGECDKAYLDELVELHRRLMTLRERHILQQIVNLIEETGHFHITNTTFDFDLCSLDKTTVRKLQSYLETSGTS
rRNA inh HTS OD600 = second read-out of rRNA inh HTS, no call of its own (marks repeat the call); OD600 change, %; measured here: OD600 growth;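 optical density of the mix in the first replicate; 0 = DMSO median and -100 = no signal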
rRNA inh HTS RFP = further read-out of rRNA inh HTS, marked with its call; RFP signal change, %; measured here: RFP humanized mutant strains;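 first replicate; 0 = DMSO median and -100 = no signal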
Numbers without * were called inactive.

The line under a structure holds: rRNA inh HTS, rRNA inh HTS OD600, rRNA inh HTS RFP, AF4-AF9 inh
COc1ccc(NC(=O)N(C)C[C@@H]2OCCCC[C@@H](C)Oc3ccc(NS(=O)(=O)c4ccc(C)cc4)cc3C(=O)N([C@@H](C)CO)C[C@@H]2C)cc1
 : 1, -3, 0.9, -2.2
O=S(=O)(c1ccc(F)cc1)N1CC[C@@H]2[C@H]1c1cc(-c3ccccc3F)ccc1N[C@@H]2CO
 : -9, -52, 26, 0.4
CNC[C@@H]1Oc2ccc(NS(=O)(=O)c3ccccc3)cc2CC(=O)N([C@H](C)CO)C[C@@H]1C
 : 4, -2, 4.4, -3.2
C[C@@H](NC(=O)C[C@H]1C[C@@H]2c3cc(NS(=O)(=O)c4ccc(F)cc4)ccc3O[C@@H]2[C@H](CO)O1)c1ccccc1
 : -5, -14, -0.4, 0.7
O=C(NCc1ccc(F)cc1)[C@H]1[C@H](CO)[C@H]2Cn3c(cccc3=O)[C@H]2N1Cc1ccccn1
 : 0, -10, -2.6, 2.5
Cc1noc(C)c1NC(=O)N(C)C[C@@H]1OCCCC[C@H](C)Oc2ccc(NS(=O)(=O)c3cccs3)cc2C(=O)N([C@@H](C)CO)C[C@H]1C
 : -4, 0, -3.4, 0.3
C[C@H]1CCCCO[C@H](CN(C)Cc2ccc3c(c2)OCO3)[C@@H](C)CN([C@@H](C)CO)C(=O)c2cc(NC(=O)C3CCCCC3)ccc2O1
 : 2, -5, -0.4, 3.7
O=C(C[C@@H]1CC[C@H]2[C@@H](COC[C@@H](O)CN2Cc2cc(F)cc(F)c2)O1)NC1CCC1
 : 1, 12, -4.2, -0.2
COc1ccccc1NC(=O)N1CC(=O)N2[C@H](CO)[C@@H](c3ccc(C#Cc4ccccc4)cc3)[C@H]2C1
 : -4, -18, 19, 1.0
O=C(c1ccccc1F)N1CC[C@H]2[C@H](CO)Nc3ccc(Br)cc3[C@H]21
 : -8, -14, 1.3, 1.9

Arranged by value in rRNA inh HTS RFP (high to low): 4 of the compounds above
SMILES | rRNA inh HTS | rRNA inh HTS OD600 | rRNA inh HTS RFP | AF4-AF9 inh
O=S(=O)(c1ccc(F)cc1)N1CC[C@@H]2[C@H]1c1cc(-c3ccccc3F)ccc1N[C@@H]2CO | -9 | -52 | 26 | 0.4
COc1ccc(NC(=O)N(C)C[C@@H]2OCCCC[C@@H](C)Oc3ccc(NS(=O)(=O)c4ccc(C)cc4)cc3C(=O)N([C@@H](C)CO)C[C@@H]2C)cc1 | 1 | -3 | 0.9 | -2.2
C[C@H]1CCCCO[C@H](CN(C)Cc2ccc3c(c2)OCO3)[C@@H](C)CN([C@@H](C)CO)C(=O)c2cc(NC(=O)C3CCCCC3)ccc2O1 | 2 | -5 | -0.4 | 3.7
Cc1noc(C)c1NC(=O)N(C)C[C@@H]1OCCCC[C@H](C)Oc2ccc(NS(=O)(=O)c3cccs3)cc2C(=O)N([C@@H](C)CO)C[C@H]1C | -4 | 0 | -3.4 | 0.3

Next results:
The line under a structure holds: rRNA inh HTS, rRNA inh HTS OD600, rRNA inh HTS RFP, AF4-AF9 inh
COc1ccc(CCN2C(=O)COc3ccccc3C2C(=O)Nc2ccc3c(c2)OCCO3)cc1OC (configuration not stated)
 : -3, -3, 0.7, 3.1
COc1ccc(NC(=O)N2C[C@H]3[C@@H](c4ccccc42)[C@H](CO)N3Cc2ccccn2)cc1
 : -2, -1, -1.3, 3.0
Cc1ccc(S(=O)(=O)Nc2cccc3c2O[C@@H](CN(C)S(=O)(=O)c2c(C)noc2C)[C@@H](C)CN([C@H](C)CO)C3=O)cc1
 : -3, -4, 0.7, 0.1
Cc1ccc(S(=O)(=O)Nc2ccc3c(c2)C(=O)N([C@H](C)CO)C[C@H](C)[C@@H](CN(C)Cc2ccncc2)OCCCC[C@H](C)O3)cc1
 : 1, -1, -1.2, -1.1
O=C(C[C@@H]1C[C@H]2c3cc(NC(=O)Nc4ccc(C(F)(F)F)cc4)ccc3O[C@H]2[C@H](CO)O1)NCc1ccc2c(c1)OCO2
 : -7, -12, 5.3, 5.2
COCC#Cc1ccc([C@@H]2[C@H]3CN(C(=O)Nc4cc(F)ccc4F)CCCCN3[C@H]2CO)cc1
 : -4, -9, -1.4, 0.4
CCCN(C)C[C@@H]1OCCCC[C@@H](C)Oc2ccc(NC(=O)Nc3cccc4ccccc34)cc2C(=O)N([C@H](C)CO)C[C@@H]1C
 : 3, 3, 2.3, 0.6
C[C@H]1CN([C@@H](C)CO)S(=O)(=O)c2ccc(-c3ccccc3)cc2O[C@H]1CN(C)C(=O)Nc1ccccc1F
 : -11, -26, 6.0, 4.8
C[C@H](CO)N1C[C@H](C)[C@H](CN(C)C)Oc2c(NS(=O)(=O)c3ccc(Cl)cc3)cccc2C1=O
 : 1, 0, -3.1, -0.8
COc1ccccc1C(=O)Nc1ccc2c(c1)C(=O)N(C)[C@H]1CC[C@@H](CC(=O)NCCc3ccncc3)O[C@@H]1CO2
 : -1, -26, -0.7, -2.6
COc1ccccc1NC(=O)N1C[C@H](O)COC[C@H]2O[C@@H](CC(=O)NCc3ccccc3)CC[C@@H]21
 : -2, 9, 2.8, -2.7
C[C@@H]1CN([C@H](C)CO)S(=O)(=O)c2ccc(-c3cccc(C#N)c3)cc2O[C@H]1CN(C)C(=O)c1ccncc1
 : 0, -1, -2.4, -0.2
O=C(C[C@H]1C[C@H]2c3cc(NC(=O)Nc4ccccc4)ccc3O[C@H]2[C@H](CO)O1)NCCN1CCCCC1
 : 2, 10, -1.6, 11
COc1ccc(CN(C)C[C@H]2Oc3ccc(NS(=O)(=O)c4cn(C)cn4)cc3CC(=O)N([C@@H](C)CO)C[C@H]2C)cc1
 : 2, -1, -3.8, 0.8
CN1C(=O)c2cc(NC(=O)c3ccc(F)cc3)ccc2OC[C@@H]2O[C@H](CC(=O)NCC3CCCCC3)CC[C@@H]21
 : -6, -15, 2.3, -0.6
CN(CC(=O)Nc1ccc(F)c(F)c1F)C(=O)C1CCCC1
 : 5, 6, -2.6, -3.8
C[C@H]1CN([C@@H](C)CO)C(=O)c2cccc(NC(=O)c3cnccn3)c2O[C@@H]1CN(C)Cc1ccc(C(=O)O)cc1
 : -2, 4, 2.2, -2.4
Cc1ccc(-c2ccccc2[C@@H]2[C@H](C#N)N(c3ncc(-c4ccccc4)s3)[C@H]2CO)cc1
 : -1, -18, -5.0, 0.9
O=C(C[C@@H]1C=C[C@@H](NC(=O)C2CC2)[C@H](CO)O1)NCc1ccncc1
 : 7, 3, -2.1, 2.2
N#Cc1ccc(S(=O)(=O)NCCc2ccncc2)cc1
 : 18, 14, -1.1, -2.3
CC1=CC(=O)C2=C(C)CCC3C(C)C(=O)OC3C12 (configuration not stated)
 : -1, -7, 8.3, -2.4
COc1cccc(C#Cc2cnc3c(c2)C(=O)N([C@@H](C)CO)C[C@@H](C)[C@H](CN(C)C(=O)C2CCCCC2)O3)c1
 : -2, 0, 2.5, 1.8
CCCC(=O)N1C[C@@H]2[C@H](c3ccccc31)[C@H](CO)N2C(=O)Nc1ccccc1
 : 1, 1, -0.2, -3.2
C[C@@H]1CN([C@@H](C)CO)C(=O)c2cc(NC(=O)CCN3CCOCC3)ccc2O[C@H]1CN(C)Cc1ccc(-c2ccccc2)cc1
 : 3, 1, -0.1, 4.7
O=C(C1CCCC1)N1C[C@H]2[C@@H](c3ccccc31)[C@H](CO)N2C(=O)Nc1cccc(F)c1
 : -2, -6, 3.3, 0.3
O=C(C[C@H]1CC[C@@H]2[C@H](COC[C@@H](O)CN2S(=O)(=O)c2ccc(F)cc2)O1)N[C@H]1CCN(Cc2ccccc2)C1
 : 4, 6, -1.1, 3.0
O=C(c1ccccn1)N1CC2(C1)[C@H](c1ccccc1)[C@@H](CO)N2Cc1cccnc1
 : 5, 11, -1.5, 1.3
C[C@@H]1CN([C@@H](C)CO)C(=O)c2cc(NC(=O)CCCCCC(=O)Nc3ccccc3N)ccc2O[C@@H]1CN(C)S(=O)(=O)c1cccs1
 : -6, 4, 0.7, -1.1
C[C@@H]1CN([C@@H](C)CO)C(=O)Cc2cc(NC(=O)CCC(F)(F)F)ccc2O[C@@H]1CN(C)Cc1ccc2c(c1)OCO2
 : -5, 1, -0.3, 1.3
CN1C=CC(=O)[C@@H](OC(=O)Nc2ccc(Br)cc2)[C@H]1c1ccccc1Br
 : -28, -27, -0.6, -1.3
OC(c1ccc(Cl)c(F)c1)c1ncc(-c2ccc(Oc3ccccc3)cc2)[nH]1 (configuration not stated)
 : -35, -67, 4.1, 4.4
CCC(=O)N1CC2(CN(Cc3ccc(F)cc3)C2)c2c(n(C)c3cc(OC)ccc23)[C@H]1CO
 : -8, -13, -0.8, 5.1
COc1ccc2c3c(n(C)c2c1)[C@@H](CO)N(S(C)(=O)=O)CC31CCN(C(=O)C2CCCC2)CC1
 : -3, -7, -1.1, -3.3
COc1cccc(-c2ccc3c(c2)[C@H]2[C@H](CCN2C(=O)Nc2ccccc2OC)[C@H](CO)N3C)c1
 : 0, 5, -0.1, -1.3
CO[C@H]1CN(C)C(=O)c2cc(NC(=O)C3CCCCC3)ccc2OC[C@H](C)N(Cc2nccs2)C[C@H]1C
 : -4, -8, 2.7, 0.2
COc1cccc(NC(=O)N(C)C[C@@H]2OCc3ccccc3-c3c(n(C)c4ccccc34)C(=O)N([C@@H](C)CO)C[C@@H]2C)c1
 : 0, 2, 1.2, 2.7
C=C[C@]1(C)C=C2C(=O)C[C@H]3C(C)(C)CCC[C@]3(C(=O)O)[C@@]2(O)CC1
 : 1, 5, -4.5, -1.4
C[C@H]1CN([C@@H](C)CO)S(=O)(=O)c2ccc(C#CCN(C)C)cc2O[C@H]1CN(C)C(=O)c1ccccc1F
 : 6, 14, -2.6, 2.8
CO[C@@H]1CN(C)C(=O)c2ccc(NS(C)(=O)=O)cc2OC[C@@H](C)N(Cc2cncnc2)C[C@@H]1C
 : 1, 0, -2.4, -15
COc1ccc(NC(=O)Nc2ccc3c(c2)CC(=O)N([C@@H](C)CO)C[C@@H](C)[C@@H](CN(C)S(=O)(=O)c2ccc(Cl)cc2)O3)cc1
 : 5, 6, 0.9, 5.0
NS(=O)(=O)c1ccc(CCNc2nn3c(-c4ccc(F)c(Cl)c4)cnc3s2)cc1
 : -2, 9, 6.7, -2.8
CCCc1cn(CC[C@H]2CC[C@H](NC(=O)C3CCOCC3)[C@@H](CO)O2)nn1
 : 1, 3, -0.3, -3.7
COCC#Cc1ccc([C@H]2[C@H]3CN(C(=O)Nc4ccccc4F)CC(=O)N3[C@H]2CO)cc1
 : 4, 5, 2.1, -2.6
C[C@@H]1CN([C@H](C)CO)C(=O)c2cc(NC(=O)Nc3ccc4c(c3)OCO4)ccc2O[C@@H]1CN(C)S(=O)(=O)c1ccccc1
 : -5, -16, -2.3, -2.7
O=C(NCC[C@H]1CC[C@H](NS(=O)(=O)c2ccc(Oc3ccccc3)cc2)[C@@H](CO)O1)C1CC1
 : -3, -11, -3.6, -1.1
COc1ccc(C#Cc2ccc3c(c2)[C@@H]2[C@@H](CCN2S(=O)(=O)c2ccc(OC)cc2)[C@@H](CO)N3C)cc1
 : 3, 19, 3.0, -1.9
O=C(Nc1ccccc1)N[C@@H]1CC[C@@H](CCNS(=O)(=O)c2ccccc2F)O[C@H]1CO
 : -2, -1, -0.9, -0.3
O=C(C[C@@H]1CC[C@@H](NC(=O)C2CC2)[C@H](CO)O1)NCc1ccncc1
 : 3, -4, -0.7, -0.8
O=C(Nc1cccc(F)c1)N1CC(=O)N2[C@H](CO)[C@H](c3ccc(C#CC4CC4)cc3)[C@H]2C1
 : 0, -23, 17, 1.4
CO[C@H]1CN(C)C(=O)c2cc(NS(=O)(=O)CC(F)(F)F)ccc2OC[C@@H](C)N(CCC(F)(F)F)C[C@H]1C
 : 0, 1, -0.5, -0.4

(further entries)
The line under a structure holds: rRNA inh HTS, rRNA inh HTS OD600, rRNA inh HTS RFP, AF4-AF9 inh
C[C@@H]1CN([C@@H](C)CO)C(=O)Cc2cc(NS(C)(=O)=O)ccc2O[C@H]1CN(C)Cc1ccncc1
 : 4, 7, -4.1, -1.8
O=C(C[C@@H]1CC[C@H](NS(=O)(=O)c2ccc(F)cc2)[C@@H](CO)O1)NCc1ccncn1
 : -1, -10, -4.9, -0.5
C/C=C/c1ccc2c(c1)O[C@H](CN(C)C(=O)CN(C)C)[C@H](C)CN([C@@H](C)CO)S2(=O)=O
 : 3, -2, 0.1, -0.4
COc1ccc(NC(=O)N(C)C[C@@H]2Oc3ncc(C#CC(C)C)cc3C(=O)N([C@@H](C)CO)C[C@H]2C)cc1
 : 3, 2, -2.5, -4.5
C[C@H]1CCCCO[C@H](CN(C)C(=O)CCCN(C)C)[C@@H](C)CN([C@@H](C)CO)C(=O)c2cc(NC(=O)Nc3ccc(F)cc3)ccc2O1
 : 2, -4, 2.3, -1.0
COc1ccc(S(=O)(=O)N(C)C[C@@H]2Oc3ccc(NS(C)(=O)=O)cc3CC(=O)N([C@H](C)CO)C[C@H]2C)cc1
 : 4, 8, 1.0, -4.3
Cn1cnc(S(=O)(=O)N[C@@H]2C=C[C@@H](CC(=O)N3CCN(c4ccccc4)CC3)O[C@@H]2CO)c1
 : 5, 8, -1.3, 0.4

Not all compounds are listed, so the mix of outcomes need not match the whole.
